Screening results deposited in PubChem by Vanderbilt University.
GIRK2 activ = activators of human GIRK2 potassium channels | G protein-activated inward rectifier potassium channel 2 (Homo sapiens), P48051 | HEK293-GIRK2 thallium flux, Thallos fluorescence | calls only for hits at 25 µM | hit rate 0.05% among 63,000 | AID 1259325, 2017;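 active means among the strongest 0.2% of first-round signals and kept after retests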;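 further: first round at about 10 µM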
Target sequence (P48051 whole entry, looked up): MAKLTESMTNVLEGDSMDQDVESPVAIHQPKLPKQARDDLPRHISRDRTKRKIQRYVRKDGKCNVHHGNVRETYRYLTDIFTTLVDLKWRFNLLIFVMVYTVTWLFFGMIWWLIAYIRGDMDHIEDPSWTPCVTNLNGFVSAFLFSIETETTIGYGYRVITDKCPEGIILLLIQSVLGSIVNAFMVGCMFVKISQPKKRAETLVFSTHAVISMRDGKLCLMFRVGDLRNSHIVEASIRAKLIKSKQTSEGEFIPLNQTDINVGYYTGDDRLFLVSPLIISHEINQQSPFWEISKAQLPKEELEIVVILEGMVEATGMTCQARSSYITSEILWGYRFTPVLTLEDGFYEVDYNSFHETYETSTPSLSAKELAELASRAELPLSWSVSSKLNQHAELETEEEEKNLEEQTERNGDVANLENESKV
Calls only; i = inactive.

item	Compound	GIRK2 activ
1	O=C(NCCCc1ccccc1)N1CCC(Oc2ncccn2)CC1	i
2	Cc1ccc2[nH]c3c(=O)n(CCC(=O)N4CCN(c5ccccc5)CC4)cnc3c2c1	i
3	O=C(CCS(=O)(=O)c1ccccc1)NCC1(c2cccs2)CC1	i
4	O=C(NC1CCCC1)N(CCc1cccs1)Cc1ccoc1	i
5	O=C(NCCNc1cc(-n2cccc2)ncn1)c1cccc(F)c1	i
6	COc1ccc(CCNC(=O)CSc2nnc(C)c3cnn(-c4ccc(C)cc4)c23)cc1OC	i
7	Cc1ccc(OCc2ccc(-c3nc(C#N)c(NCCCN4CCOCC4)o3)o2)cc1	i
8	COc1nn(C)cc1C(=O)NCCc1nc2c(c(C(F)(F)F)n1)CCCC2	i
9	COc1ccccc1-n1ncc2c(C)nnc(SCC(=O)N3CCN(c4ccccc4)CC3)c21	i
10	O=C(C1COc2ccccc2O1)N(CCc1cccs1)Cc1ccco1 (configuration not stated)	i
11	COc1cc(C2C(=C(O)c3ccc(Cl)cc3)C(=O)C(=O)N2c2cc(C)on2)ccc1O (configuration not stated)	i
12	O=S(=O)(Nc1ccc(N2CCCS2(=O)=O)cc1)c1ccccc1	i
13	O=C(NCc1ccco1)c1ccc(CNS(=O)(=O)c2cccc(C(F)(F)F)c2)cc1	i
14	O=C1Nc2ccccc2/C1=C1\CCc2cc(O)ccc21	i
15	O=C(COc1ccc(Cl)cc1Cl)Nc1cnoc1	i
16	Cc1nc2c(C)cccn2c1C(O)=C1C(=O)C(=O)N(CCN(C)C)C1c1cccs1 (configuration not stated)	i
17	O=S(=O)(NCCOc1ccc2c(c1)OCO2)c1ccc(F)cc1	i
18	C=CCn1c(-c2ccc(OC)cc2)nc2nc3ccccc3nc21	i
19	O=C(Nc1nnc(C2CC2)s1)c1cc2c(=O)n3ccccc3nc2s1	i
20	COc1ccc(-c2cc(C(=O)N3CCC(NC(=O)c4cccc(C(C)=O)c4)CC3)[nH]n2)cc1	i
21	COc1ccc(-c2ccc(=O)n(CCNS(=O)(=O)c3ccc(F)cc3)n2)cc1	i
22	Cc1cc(C)cc(NS(=O)(=O)C2CC2)c1	i
23	CC(C)(C)C(=O)N1CCN(Cc2nc3ccccc3n2Cc2ccccc2)CC1	i
24	COc1ccc2nc(N3CCC(C(=O)Nc4cccnc4)CC3)sc2c1	i
25	CCOC(=O)CCC(=O)N1CCC(Cn2ccnc2-c2ccccc2)CC1	i
26	C/C=C1\[C@H](O[C@@H]2O[C@H](CO)[C@@H](O)[C@H](O)[C@H]2O)OC=C(C(=O)OC)[C@H]1CC(=O)OC[C@H]1O[C@@H](OCCc2ccc(O)cc2)[C@H](O)[C@@H](O)[C@@H]1OC(=O)C[C@@H]1C(C(=O)OC)=CO[C@@H](O[C@@H]2O[C@H](CO)[C@@H](O)[C@H](O)[C@H]2O)/C1=C\C	i
27	Cn1cccc1C(CNC(=O)C(=O)Nc1ccc2c(c1)OCO2)N1CCCC1 (configuration not stated)	i
28	O=C(Nc1nc2c(s1)CN(C(=O)c1cc(C3CC3)on1)CC2)C1CCC1	i
29	COc1ccccc1-c1ccc(N2CCN(C(=O)Nc3ccc4c(c3)OCO4)CC2)nn1	i
30	CCn1c(-c2ccccc2)c[nH]c1=S	i
31	COc1ccccc1N1CCN(C(=O)CCc2csc(NC(=O)c3ccco3)n2)CC1	i
32	COCCn1c(-n2nc(C)c(C)c2C)nc2c1c(=O)n(Cc1ccc(F)cc1)c(=O)n2C	i
33	O=C(CCC(=O)N1CCN(C(=O)c2cnn3ccccc23)CC1)c1ccccc1	i
34	COc1ccc(CNC(=O)C2CCN(c3ncnc4c3sc3nc(C)cc(C)c34)CC2)cc1	i
35	COCC1CCCN(Cc2ccccc2Cl)C1 (configuration not stated)	i
36	COc1cc(NC(=O)Nc2ccc3c(c2)CCCN3C(=O)c2ccccc2)cc(OC)c1	i
37	C=CCn1c(=O)c2c(nc(N/N=C\c3cccc(O)c3)n2C)n(C)c1=O	i
38	COCCN(Cc1ccsc1)C(=O)CSCc1ccccc1	i
39	C/C(=C\CCC(C)C1CC(O)C2(C)C3CCC4C(C)(C)C(OC5OCC(O)C(O)C5O)CCC45CC35CC(O)C12C)C(=O)O (configuration not stated)	i
40	CSc1ccccc1C(=O)Nc1ccc2c(c1)C(=O)NCC2	i
41	O=C(CCCn1nnc2ccccc2c1=O)Nc1ccc(F)c(F)c1	i
42	COc1ccc(C2CCN(C(=O)Cc3cccs3)C2)cc1 (configuration not stated)	i
43	O=C(c1csc(-c2cc3ccccc3[nH]2)n1)N1CCN(c2ccccc2)CC1	i
44	COc1ccc(CN2CCc3nc(SCc4c(F)cccc4Cl)[nH]c(=O)c3C2)cc1	i
45	O=C(Nc1nc2c(s1)CN(S(=O)(=O)C1CC1)CC2)c1cc(-c2cccs2)[nH]n1	i
46	CC(=O)Cn1c(=O)c2c(nc3n(-c4cccc(C)c4)c(C)c(C)n23)n(C)c1=O	i
47	CCN1C(=O)CCc2cc(NC(=O)c3cccc(OC)c3OC)ccc21	i
48	Cn1nc(CNC(=O)CN2C(=O)CCC2=O)c2c1CCCC2	i
49	O=C(c1cc2ccccc2o1)N1CCN(Cc2nnnn2-c2ccccc2)CC1	i
50	Cc1cccc(C)c1Nc1ccccc1CC(=O)O	i
51	Cc1ccc2nc3sc(Nc4ccc(C)c(Cl)c4)nn3c(=O)c2c1	i
52	O=C(CC1CCCCC1)Nc1cc(C2CC2)nn1-c1nc2c(c(=O)[nH]1)CCCC2	i
53	N#C/C(=C\N1CCN(c2ccc(F)cc2)CC1)c1nc2ccccc2s1	i
54	CCOC(=O)C(C)Oc1ccc2c(=O)c(-c3ccc(Br)cc3)coc2c1 (configuration not stated)	i
55	Cc1ccc(-n2ncc3c2ncn2c(-c4ccccc4O)nnc32)cc1	i
56	O=C(c1cccc2ccccc12)N1CCN(Cc2nc(-c3ccco3)cs2)CC1	i
57	COCCOC(=O)C1=C(C)Nc2ncnn2C1c1cccc(O)c1 (configuration not stated)	i
58	Cc1c(O)ccc2c(CCl)cc(=O)oc12	i
59	O=C(Nc1ccc2oc(=O)ccc2c1)c1ccc(Cl)nc1Cl	i
60	Cc1nc(OCC(=O)Nc2cnc(-n3ccnc3C)nc2)cc(-n2cccn2)n1	i

In a second layout: four of the compounds above
[52] O=C(CC1CCCCC1)Nc1cc(C2CC2)nn1-c1nc2c(c(=O)[nH]1)CCCC2
  GIRK2 activ = i

[53] N#C/C(=C\N1CCN(c2ccc(F)cc2)CC1)c1nc2ccccc2s1
  GIRK2 activ = i

[54] CCOC(=O)C(C)Oc1ccc2c(=O)c(-c3ccc(Br)cc3)coc2c1 (configuration not stated)
  GIRK2 activ = i

[55] Cc1ccc(-n2ncc3c2ncn2c(-c4ccccc4O)nnc32)cc1
  GIRK2 activ = i

Values by screen from the entries so far:
GIRK2 activ, compounds 48–56, in order: i, i, i, i, i, i, i, i, i

Remaining list, next part:
item	Compound	GIRK2 activ
61	CC(C)CS(=O)(=O)Nc1ccc2c(c1)N(S(=O)(=O)c1ccccc1)CCC2	i
62	Cn1cc(S(=O)(=O)c2ccccc2)c(=O)c2cc(F)c(N3CCN(c4ccccc4)CC3)cc21	i
63	COc1ccccc1OCC#CCNC(=O)C1CCN(S(C)(=O)=O)CC1	i
64	O=C(Nc1ccccc1Br)C1CCN(Cc2nc(-c3ccccc3)no2)CC1	i
65	N#Cc1nc(/C=C/c2ccccc2)oc1N1CCN(C(=O)c2cccs2)CC1	i
66	COc1ccc(NC(=O)Cn2cnc3c(c2=O)CN(Cc2ccc(C)cc2)CC3)cc1	i
67	CCOc1ccccc1C(=O)Nc1c2c(nn1CC(=O)NCc1ccco1)CSC2	i
68	Cc1ccc(OCC(O)Cn2c(N3CCCC3)nc3c2c(=O)[nH]c(=O)n3C)cc1C (configuration not stated)	i
69	COCCN(Cc1ccncc1)C(=O)c1cccs1	i
70	COc1ccc(CNC(=O)c2nnn(Cc3cc(Br)ccc3OC)c2N)cc1	i
71	COc1nn(C)cc1C(=O)Nc1ccc(C(=O)NCCN2CCOCC2)cc1	i
72	COc1ccccc1CNC(=O)C1CCN(c2nc3c(-c4cccc(C)c4)csc3c(=O)[nH]2)CC1	i
73	CSc1cccc(NC(=O)C(=O)NCC(C)(O)CCc2ccccc2)c1 (configuration not stated)	i
74	COc1cccc(C(=O)NC2CCN(C(=O)c3cn(-c4ccccc4C)nn3)CC2)c1	i
75	CN(CC(=O)Nc1nc(-c2ccco2)cs1)c1nc2ccccc2s1	i
76	CC(C)(C)c1ccc(C(=O)NC2CC(=O)N(C3CC3)C2)cc1 (configuration not stated)	i
77	Cc1cc(C(=O)N2CCC(Oc3nc4c(C)ccc(C)c4s3)CC2)no1	i
78	O=C(Nc1nc(C(=O)Nc2cccc3nsnc23)co1)c1ccsc1	i
79	N#Cc1cccc(NC(=O)CSc2cc(NCc3ccccc3Cl)ncn2)c1	i
80	COc1ccccc1-c1ccc(N2CCC(C(=O)Nc3nc4c(s3)CCCC4)CC2)nn1	i
81	COc1ccccc1NC(=O)Cn1cnc2c(-c3ccc(C)cc3)nsc2c1=O	i
82	O=C(c1ccc(S(=O)(=O)N2CCCCCC2)cc1)N1CCN(c2ccccc2)CC1	i
83	C/C(=C\C(=O)C(C)C1CCC2C3=C(CCC21C)C1(C)CCC(O)C(C)(C)C1(O)CC3)C(C)(C)O (configuration not stated)	i
84	COc1ccc2c(c1)c(CC(N)=O)c(C)n2C(=O)c1ccc(Cl)cc1	i
85	COc1ccccc1C(=O)N1CCOCC1CN(C)C (configuration not stated)	i
86	O=C(c1ccc(Cl)s1)N(CCn1cccn1)c1nc2ccccc2s1	i
87	Cc1ccc(Cl)cc1N1CCN(S(=O)(=O)N2CCCC2)CC1	i
88	O=C(c1cn(-c2ccc(Cl)cc2)nn1)N1CCN(c2ccccc2F)CC1	i
89	COCCNC(=O)c1c(N)n(/N=C\c2cccc(O)c2)c2nc3ccccc3nc12	i
90	COCCCn1c(=O)c2ccccc2n(Cc2nc(-c3ccc(Br)cc3)no2)c1=O	i
91	COc1ccc(-c2cc3c(=O)[nH]nc(SCc4nc(-c5ccc(C)c(C)c5)no4)n3n2)cc1OC	i
92	COc1ccc(CNC(=O)Nc2ccc(-c3nc4ccccc4[nH]3)cc2)cc1OC	i
93	COc1ccc(CNC(=O)C(C)n2nc(C)ccc2=O)cc1 (configuration not stated)	i
94	CC(C)Cn1c(=O)c2ccc(C(=O)NC(C)C)cc2n2c(=O)n(CC(=O)NC(C)(C)C)nc12	i
95	O=C(Cn1ccc2ccccc21)N1CCC(Oc2nc3ccccc3s2)CC1	i
96	COc1ccc2c(c1)c(CC(=O)O)c(C)n2Cc1ccc(I)cc1	i
97	CCOc1nn(CC)cc1C(=O)Nc1nnc(SCC(=O)N2CCCC2)s1	i
98	O=C(CCc1cccc(Oc2ccc(F)cc2)c1)NCc1nc(-c2ccccc2)no1	i
99	O=C(NCCN1CCN(c2ccccc2)CC1)c1ccc2ccccc2c1	i
100	O=C(CN1CCN(C(=O)CCS(=O)(=O)c2ccccc2)CC1)c1ccco1	i
101	Cn1c(=O)c2c(nc3n2CCN3c2cccc(OCC(=O)C(C)(C)C)c2)n(C)c1=O	i
102	O=C(CCn1ccc(=O)[nH]c1=O)NCC#CCN1CCc2ccccc2C1	i
103	COc1ccc(OCc2noc(CNC(=O)CCSc3ccccc3)n2)cc1	i
104	O=C(CSc1nc2ccccc2s1)N1CCN(C(=O)C2CC2c2ccccc2)CC1 (configuration not stated)	i
105	Cc1cc2nc(N(CC3CCCO3)C(=O)c3ccnn3C)sc2cc1C (configuration not stated)	i
106	CNC(=O)CSc1nnc(N2CCN(C(=O)Cc3cccc4ccccc34)CC2)s1	i
107	O=C(N1CCC(Oc2ncccn2)CC1)C1(c2cccs2)CCCC1	i
108	Cc1cn2c3c(=O)n(CC(N)=O)c(=O)n(C)c3nc2n1C(C)c1ccccc1 (configuration not stated)	i
109	O=C(CSc1nc2ccccc2s1)N1CCc2cc(S(=O)(=O)N3CCOCC3)ccc21	i
110	Cc1cc(C)c(NC(=O)Cn2nc3ccc(-c4ccccc4)nn3c2=O)c(C)c1	i
111	COc1cc(CSc2nnc(N3CCN(C)CC3)s2)cc(OC)c1	i
112	COc1ccc(CCNC(=O)N2CCOC(c3ccccc3)C2)cc1 (configuration not stated)	i
113	CC(C)(Oc1ccc(Cl)cc1)C(=O)N1CCC(Cn2ccnc2)CC1	i
114	COc1ccc(S(=O)(=O)NCC2(CO)CC2)cc1F	i
115	CC(=O)N1CCN(C(=O)c2cnn3ccccc23)CC1	i
116	COCCCNC(=O)c1ccc(-n2nc(C(F)(F)F)cc2-c2cccs2)cc1	i
117	O=C(Cc1ccc(F)cc1)NCCCN1CCN(c2ccccc2)CC1	i
118	COc1ccc(C2(CNC(=O)C3CC=CCC3)CCCC2)cc1 (configuration not stated)	i
119	O=S(=O)(NC1(c2nc(-c3ccccc3)no2)CCCCC1)c1ccc(F)c(F)c1	i
120	O=c1c2ccccc2n(Cc2nc(-c3cccs3)no2)c(=O)n1Cc1ccco1	i

(more compounds)
item	Compound	GIRK2 activ
121	CCOc1ccccc1Oc1coc2cc(OC(=O)c3c(OC)cccc3OC)ccc2c1=O	i
122	O=C(NCCN1CCN(C(=O)c2ccsc2)CC1)NC1CCCCC1	i
123	O=C(NCCN1CCN(S(=O)(=O)c2ccc(C(F)(F)F)cc2)CC1)c1ccsc1	i
124	CCOc1ccc(-c2noc(Cn3c(=O)n(CCc4ccccc4)c(=O)c4ccccc43)n2)cc1	i
125	COc1cccc(NC(=O)N2CC(c3nc(-c4ccc[nH]c4=O)no3)C2)c1OC	i
126	Cn1c2ccccc2c(=O)c2c(=O)n(Cc3ccco3)c(-c3cccs3)nc21	i
127	Cn1c(SCC(=O)NCc2ccccc2)nc2c(-c3ccccc3)csc2c1=O	i
128	CC(=O)Nc1ccc(S(=O)(=O)N(C)CC(O)CN(c2ccc(F)cc2)S(C)(=O)=O)cc1 (configuration not stated)	i

This is a subset; count on the stated rates, not on these rows.
